Vif A3G: HIV-1 Vif–A3G interaction blockers – biochemical, TR-FRET, GST-Vif 1-94, biotin-A3G peptide, dose response retest, primary screen (AID 1117319); TR-FRET GST-Vif / biotin-A3G peptide binding; higher % means a stronger effect; test concentration not given here; strong numbers were not always called active; one-dose inhibition, %; IC50 in µM for titrated hits; 0.57% of 260,000 active;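 active = above the screen mean plus three standard deviations and confirmed in dose response; inconclusive = results disagree or hit not tested in dose response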;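 note: Vif residues 1-94 fused to GST binding biotinylated APOBEC3G peptide 110-148; 0% = full assay without inhibitor and 100% = GST in place of GST-Vif; retest series ran down from 100 µM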
UCH37 inh: human UCH37 deubiquitinating enzyme inhibition; Q9Y5K5; purified proteasome/UCH37, Ub-AMC cleavage fluorescence; inhibition, % (no concentration beside the values); 0.33% of 330,000 active;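 active = mean of two replicates above 20%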;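 note: 0% = compound-free wells with enzyme and 100% = wells lacking proteasome; stock transfer was 100 nL into about 20 µL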
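Reagent: Ub-AMC substrate; assay system: Proteasome-associated human UCH37 deubiquitinase; controls: no-proteasome and no-compound wells; read-out: % inhibition of Ub-AMC cleavage fluorescence; timing: 30 min preincubation with enzyme, 25 min cleavage at room temperature; signal: AMC fluorescence from Ub-AMC cleavage, excitation 355 nm, emission 460 nm; buffer or medium: Tris-HCl pH 7.4 plus ovalbumin, ATP-MgCl2, DTT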
B2AR ag: activates human beta-2 adrenergic receptor causing internalization | P07550 | Am2.2-beta2AR cells, FAP receptor internalization, flow cytometry; reference of the scale not given here | response, % (test concentration not listed) | 0.43% of 340,000 active | AID 504454;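 active = response above a set limit, near 3 SD of response in nonfluorescent compounds, cut at about 42% in these data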;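 note: stock transfer was 100 nL into about 11 µL; a reference agonist was the positive control; negative values mostly stem from fluorescent compounds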
Target sequence (P07550 whole entry, looked up): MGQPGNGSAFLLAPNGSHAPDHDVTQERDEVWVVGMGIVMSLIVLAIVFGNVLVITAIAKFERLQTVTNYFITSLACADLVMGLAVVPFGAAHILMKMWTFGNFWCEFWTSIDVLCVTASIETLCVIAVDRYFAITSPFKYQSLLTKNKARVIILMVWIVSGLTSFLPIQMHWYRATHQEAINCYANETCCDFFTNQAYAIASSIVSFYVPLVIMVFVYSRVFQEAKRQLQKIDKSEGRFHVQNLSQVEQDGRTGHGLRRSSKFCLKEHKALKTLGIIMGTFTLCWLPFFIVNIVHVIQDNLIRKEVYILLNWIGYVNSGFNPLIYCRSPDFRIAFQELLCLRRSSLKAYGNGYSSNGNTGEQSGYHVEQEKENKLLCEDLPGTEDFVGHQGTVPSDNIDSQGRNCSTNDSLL
LANA-H2B inh: blocks KSHV LANA binding to histone H2A/H2B. Q9QR71. 0.6% of 320,000 active. cell-free LANA-H2A/H2B peptide, fluorescence polarization. inhibition, % (test concentration not listed); in the data active = inhibition mostly above about 10%, no sharp cut-off; inactive = mostly below about 6.7%;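 note: stock transfer was 7.5 nL into about 10 µL; 0% = median of vehicle wells and 100% = median of positive control wells; one replicate is shown; the record names a cut of 25% in any replicate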
HNF4A DNA FP: change in binding of human HNF4 alpha to DNA; 0.3% of 360,000 active; activity change, % at 10 µM; HNF4a-FITC DNA binding, fluorescence polarization, 1 h; AID 1224865; P41235; in the data active = activity change above about 30%, passing the limit was not always enough;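 note: controls were the assay level and a saturating level of protein; the project sought stronger binding though the title names inhibitors; some compounds called inactive have numbers as strong as hits; positive values seem to mean higher polarization but the record does not say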
Target sequence (P41235 whole entry, looked up): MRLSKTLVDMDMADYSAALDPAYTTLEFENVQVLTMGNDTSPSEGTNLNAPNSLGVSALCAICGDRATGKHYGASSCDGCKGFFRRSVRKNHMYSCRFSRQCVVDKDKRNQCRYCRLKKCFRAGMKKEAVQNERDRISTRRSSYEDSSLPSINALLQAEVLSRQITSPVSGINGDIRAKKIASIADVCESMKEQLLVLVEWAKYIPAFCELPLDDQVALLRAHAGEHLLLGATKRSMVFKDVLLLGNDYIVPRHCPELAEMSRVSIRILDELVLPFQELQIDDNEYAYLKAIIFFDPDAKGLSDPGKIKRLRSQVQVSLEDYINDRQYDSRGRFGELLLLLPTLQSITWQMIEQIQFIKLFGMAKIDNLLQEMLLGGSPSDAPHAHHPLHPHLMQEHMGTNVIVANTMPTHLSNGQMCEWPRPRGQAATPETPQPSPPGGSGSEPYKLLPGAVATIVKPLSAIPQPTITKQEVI
E coli growth: E. coli growth inhibition. OD600 absorbance (no concentration beside the values). Escherichia coli growth, OD600, 23 h; hits give low values. AID 1053175. 0.21% of 330,000 active;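 active = OD600 absorbance below the run mean of sample wells minus 3.6 SD, in any replicate, cut at about 0.56 in these data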;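 note: stock transfer was 300 nL into about 60 µL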
Bfl-1 A1 inh: inhibitors of the anti-apoptotic protein A1, read as caspase activation; MEF A1-2A-BIM cells, Caspase-Glo 3/7 luminescence, 3 h; percent of clofoctol response, vehicle zero; caspase activation, % (concentration not given with the values); 0.066% of 330,000 active;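 active = over half of replicate activation scores above 10%, or exactly half above 10 with the replicate mean above 10; inconclusive = replicate mean below 10 yet half the replicates above 10; inactive = over half of replicates below 10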;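 note: wells of about 30 µL received 50 nL stock; many hits fall short of the cut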
Active calls of the source: *; ? = inconclusive; nt = not tested or not shown.

SMILES | Vif A3G | UCH37 inh | B2AR ag | LANA-H2B inh | HNF4A DNA FP | E coli growth | Bfl-1 A1 inh
CC1CN(C(=O)c2cc([N+](=O)[O-])cc([N+](=O)[O-])c2)CC(C)O1 (stereo not given) | 4% | 3.4 | -3 | 5.5 | -8.0 | 0.71 | 0.5
COc1ccccc1-c1nc(SCC(=O)Nc2cc(C)on2)c2c(=O)n(C)c(=O)n(C)c2n1 | nt | -4.7 | 1 | -1.0 | 0.7 | 0.71 | -0.1
CCOc1ccc(NC(=O)c2nc(SCC)ncc2Cl)cc1 | -2% | -14 | 1 | -5.3 | -3.6 | 0.67 | 0.1
O=C(O)c1cccc(-c2ccc3c(c2)OCO3)c1 | -3% | -0.5 | 0 | -1.7 | 2.0 | 0.71 | -1.8
COC1C(CO)OC(n2cnc3c(=S)nc(N)[nH]c32)C1O (stereo not given) | -5% | nt | 8 | nt | 2.6 | nt | nt
O=C(CCCN1C(=O)c2ccccc2C1=O)Nc1c(C(=O)C2CC2)oc2ccccc12 | 0% | -1.1 | 0 | -1.2 | 1.0 | 0.66 | 0.2
Cc1c(CC(=O)O)c(=O)oc2c(C)c(OCc3c(F)cccc3Cl)ccc12 | -5% | -185 | 3 | 3.0 | -2.1 | 0.67 | 1.4
CCOc1ccc2nc(NC(=O)c3ccc(OC)c(S(=O)(=O)N4CCOCC4)c3)sc2c1 | 26% | -116 | 16 | 1.1 | 2.4 | 0.75 | 2.0
CCN(CC(=O)NCc1ccc(F)cc1)C(=O)c1cc2ccccc2o1 | nt | -4.1 | -7 | -0.6 | 5.3 | 0.69 | -1.2
COc1ccc(CCNS(=O)(=O)c2ccc(-c3ccc(=O)[nH]n3)o2)cc1OC | 2% | 3.8 | -2 | 7.3 | -0.7 | 0.72 | 1.1
Cc1cc(C)n(CC2CC(=O)N(c3ccc(Cl)c(Cl)c3)C2=O)n1 (stereo not given) | 29% | 4.4 | 2 | 6.1 | 2.6 | 0.71 | -0.5
CCOC(=O)c1oc2cccc(OC(C)=O)c2c1C | 17% | 0.7 | 3 | 1.1 | -2.7 | 0.76 | -8.4
NS(=O)(=O)c1ccc(NC(=S)N2CCN(c3cccc(Cl)c3)CC2)cc1 | ? | nt | 4 | -6.7 | 2.0 | nt | -0.4
Cc1ccc(N2C(=S)NC3c4cc(Cl)ccc4OC2(C)C3C(=O)N(C)C)cc1 (stereo not given) | nt | 0.9 | 4 | 2.4 | -1.5 | 0.65 | -0.6
Cc1nnc(SCC(=O)Nc2sccc2C#N)n1Cc1ccccc1 | 3% | 0.1 | 4 | 0.5 | -0.8 | 0.72 | 0.4
O=C(NCC1CCCO1)C(c1ccncc1)N(Cc1cccs1)C(=O)Cn1nnc(-c2ccc(F)cc2)n1 (stereo not given) | nt | 4.3 | -5 | 0.5 | 2.0 | 0.73 | -0.4
COc1ccccc1NC(=O)CSc1nnnn1C1CCCCC1 | 4% | 0.9 | -16 | 2.4 | -2.1 | 0.66 | -0.3
COc1cc(NC(=S)NNC(=O)CC(C)C)c(OC)cc1Cl | nt | 2.3 | 4 | 3.8 | -1.8 | 0.65 | 0.5
CSc1nnc(-c2sc3cc(C(F)(F)F)cnc3c2-c2ccccc2)n1C | -3% | -12 | 4 | -3.9 | 4.5 | 0.73 | 0.9
COc1cccc(CNC(=O)C2CCN(S(=O)(=O)c3ccc(Br)s3)CC2)c1 | nt | 2.0 | -2 | -3.0 | 1.3 | 0.69 | 1.3
CCC(C)Sc1ccc([C@@H]2[C@@H]3C(=O)N(CC)C(=O)[C@@H]3[C@]3(C(=O)OC)CCCCN23)cc1 (stereo not given in full) | nt | 2.6 | 10 | -0.3 | 5.9 | nt | -0.3
O=C(/C=C/c1ccc([N+](=O)[O-])cc1)NCCc1ccc(F)cc1 | -7% | 6.0 | 0 | -0.2 | 0.8 | 0.73 | 0.1
CCC1=NN2C(=N)/C(=C\c3cccn3-c3cccc(Cl)c3)C(=O)N=C2S1 | 95µM* | 2.0 | -10 | -3.4 | 4.5 | 0.69 | 2.2
COc1ccccc1N(Cc1ccccc1)S(=O)(=O)c1cccc(C(=O)Nc2cccc(C)n2)c1 | nt | 3.5 | 9 | -8.3 | 1.4 | 0.77 | 0.2
Cn1c(COc2ccc(Cl)cc2)nnc1SCC(=O)Nc1ccc2c(c1)CCC2 | nt | 4.1 | -16 | 1.5 | -0.8 | 0.67 | -0.3
SMILES | Vif A3G | UCH37 inh | B2AR ag | LANA-H2B inh | HNF4A DNA FP | E coli growth | Bfl-1 A1 inh
CCc1ccc(NC(=O)CC2C(=O)Nc3c2c(=O)n(C)c(=O)n3C)cc1 (stereo not given) | 3% | 5.8 | 6 | -5.9 | -0.8 | 0.72 | 1.1
O=C(O)c1ccc(-n2ncc3c2/C(=C/c2cccc([N+](=O)[O-])c2)CC3)cc1 | 18% | 11 | 18 | 0.0 | -5.8 | 0.67 | 0.4
CCC(C(=O)Nc1ccccn1)c1ccccc1 (stereo not given) | nt | 3.6 | -5 | 5.8 | 0.8 | 0.71 | 0.1
CC(C)N(CC(=O)Nc1ccc(Cl)cc1C(F)(F)F)C(=O)CCl | -1% | 1.0 | 13 | -2.5 | -6.2 | 0.64 | 1.2
Cc1ccccc1C(=O)Nc1ccnn1C1CCN(C(C)Cc2ccccc2F)CC1 (stereo not given) | -8% | 3.4 | 15 | 1.3 | -0.8 | 0.7 | 0.0
Cc1cc(NC(=O)c2ccc3nccnc3c2)ccc1Br | nt | 4.7 | 14 | 5.8 | 0.5 | 0.69 | -6.0
Cc1cccc(C(=O)NCCNC(=O)c2ccccn2)c1 | nt | 4.8 | 5 | 3.6 | -1.8 | 0.7 | -0.5
Cn1cc(S(=O)(=O)N2CCOCC2)cc1C(=O)NCc1ccccc1Cl | nt | 2.1 | -7 | -1.0 | -5.8 | 0.66 | nt
COCCN1CCN(C(=O)c2ccc3c(c2)S(=O)(=O)c2ccccc2C3=O)CC1 | nt | 2.0 | nt | 0.8 | nt | 0.81 | -0.2
O=C(Nc1ccc2oc(-c3ccccc3Cl)nc2c1)c1ncn[nH]1 | 18% | -1.1 | -2 | -2.0 | -2.3 | 0.69 | 0.2
CCCCC(=O)N/N=C/c1ccc(Sc2cccc3cccnc23)o1 | 1% | nt | 49* | 5.3 | 4.2 | nt | 0.4
CCOC(=O)C1=C(C)N(c2ccccc2)C(=O)/C1=C\c1cccs1 | -1% | 3.6 | 91* | 2.1 | 1.0 | 0.72 | 0.0
CN(Cc1ccc(Cl)cc1Cl)C(=O)c1cccc(S(=O)(=O)N2CCN(c3ccccc3)CC2)c1 | -2% | 1.9 | 5 | -0.5 | 3.6 | 0.68 | 0.1
CCN(CCO)C(=O)c1ccc2nc(Cc3ccc(OC)cc3)oc2c1 | -4% | nt | -7 | -2.4 | -1.1 | nt | -3.1
CN(C)S(=O)(=O)c1ccc(C(=O)Nc2cccc(C(=O)O)c2)cc1 | 8% | 1.4 | -5 | -1.1 | 1.2 | 0.74 | -1.0
CCOC(=O)C1=C(O)/C(=C/c2ccc(OCC(=O)O)c(OCC)c2)SC1=Nc1ccc(OC)cc1 | 8% | 14 | -3 | -0.1 | -1.0 | 0.66 | -0.6
CC(=O)c1ccc(NC(=O)c2cc(Cl)nc3ccccc23)cc1 | -13% | -0.5 | -7 | -3.7 | 7.1 | 0.76 | -0.1
Nc1ccc(N2CCCCC2)c(S(=O)(=O)Nc2ccc(Cl)cc2)c1 | 0% | -1.7 | -23 | -8.7 | 3.3 | 0.66 | 0.7
CC(Oc1ccc(-c2ccccc2)c(F)c1)c1ccn(S(=O)(=O)c2cccc3ccccc23)n1 (stereo not given) | -5% | 2.5 | -2 | -0.7 | 0.4 | 0.7 | 0.0
CC(=O)N1N=C(c2ccccc2)OC1c1cccnc1 (stereo not given) | -2% | 1.0 | 3 | 2.0 | -0.1 | 0.69 | -0.2
O=C(O)c1ccc(-n2nncc2-c2ccco2)cc1 | nt | 1.8 | -4 | 1.2 | 1.3 | 0.69 | 1.0
O=[N+]([O-])c1cccc(-c2cc3cccc[n+]3cc2-c2cccc([N+](=O)[O-])c2)c1 | nt | 5.7 | -4 | -2.1 | -2.4 | 0.7 | -0.3
Cc1ccc(S(=O)(=O)c2nnn3c2nc(N2CCOCC2)c2ccccc23)cc1C | -2% | -22 | 7 | 2.9 | -1.5 | 0.66 | -0.1
CC(C)OC(=O)/C(=C\c1cccnc1)NC(=O)c1ccccc1 | -10% | 5.8 | -4 | 0.1 | 4.7 | 0.66 | 0.0
Cn1nnnc1N=N/C(=N/Nc1ccccc1)c1ccccc1 | nt | nt | -17 | -3.4 | 0.8 | nt | -0.2
SMILES | Vif A3G | UCH37 inh | B2AR ag | LANA-H2B inh | HNF4A DNA FP | E coli growth | Bfl-1 A1 inh
O=C(Cc1ccccc1)c1nc2ccccc2s1 | -6% | 12 | 1 | -0.9 | -0.6 | 0.67 | -4.9
COC(CNC(=O)CNC(=S)N(Cc1ccccc1)Cc1cccs1)OC | 0% | -1.1 | -23 | -0.9 | 0.2 | 0.72 | 0.4
CCN1CCCC1CNC(=O)Cn1nc(C)n2c(cc3cc(C)ccc32)c1=O (stereo not given) | nt | -12 | -2 | 0.7 | 1.8 | 0.64 | 0.6
N/C(=N/OC(=O)c1ccccc1F)c1nonc1N | 24% | nt | -5 | -0.2 | 1.1 | nt | -1.9
CCOc1cc(/C=C2/SC(=Nc3ccccc3)N(Cc3cccnc3)C2=O)ccc1OCC#N | -2% | -3.8 | -1 | -3.8 | 4.4 | 0.73 | 0.8
COc1cccc(CN(C(=O)Cc2c[nH]c3ccccc23)C(C(=O)NC2CCCCC2)c2cccs2)c1 (stereo not given) | ? | 2.3 | 14 | 2.6 | -1.4 | 0.7 | 0.5
COc1ccc(NC(=O)c2nnn(CC(=O)Nc3ccccc3OC)c2N)c(OC)c1 | -11% | -66 | -2 | 1.1 | 5.1 | 0.69 | -2.0
Cc1cc(C)n(Cc2ccc(C(=O)O)o2)n1 | 8% | 0.1 | 6 | 8.3 | -0.2 | 0.7 | 0.6
CCCCOc1ccc(S(=O)(=O)NNC(=O)c2cc3ccccc3o2)cc1 | 4% | -0.2 | -12 | 3.1 | -0.8 | 0.69 | 1.6
CCOc1ccc(C(OC(=O)c2ccco2)C(=O)NCc2ccc(C)cc2)cc1 (stereo not given) | -1% | 3.6 | -7 | -4.8 | 0.6 | 0.72 | 0.9
COc1ccc(S(=O)(=O)N2CCC(C)CC2)cc1N(C)S(=O)(=O)c1ccccc1 | nt | -1.9 | -3 | 3.7 | -2.2 | 0.7 | 1.6
Cc1ccc(CCNS(=O)(=O)c2cnc[nH]2)cc1 | 2% | 5.5 | 4 | 2.7 | 1.0 | 0.73 | -0.4
CC(C)COc1ccc(C(=O)OCCN2CCOCC2)c(O)c1 | 15% | 3.8 | -8 | -2.5 | 0.3 | 0.7 | -0.3
COc1cc(/C=N/NC(=O)C(NC(=O)c2ccccc2)c2n[nH]c(=O)c3ccccc23)ccc1OCC(N)=O (stereo not given) | nt | nt | -17 | 22* | -1.0 | nt | 0.0

Only HNF4A DNA FP (three entries from above):
molecule	HNF4A DNA FP
Cc1ccc(CCNS(=O)(=O)c2cnc[nH]2)cc1	1.0
COC(CNC(=O)CNC(=S)N(Cc1ccccc1)Cc1cccs1)OC	0.2
CCOc1ccc(C(OC(=O)c2ccco2)C(=O)NCc2ccc(C)cc2)cc1 (stereo not given)	0.6

Bioassay records: PubChem, several laboratories
